Assay outcomes as filed in PubChem BioAssay.
hNpr1 antagonist – human Npr1 receptor antagonism; P16066; HEK293 hNpr1 GloSensor cGMP, ANP-stimulated luminescence; Potency, µM (highest dose often 46.3 µM), inactives show at the top dose activity change, negative = inhibition, actives largely listed as inhibitors; actives 1.6% (n = 76,000); AID 1347048; active = well fitted inhibition curve with a large enough effect; inconclusive = small, poorly fitted or top-dose-only effect; inactive = no such curve, though single readings can be large or run the other way;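 note: nearly all actives have a fitted effect of over 60% in size; nearly all hits also lower the signal before the agonist is added; a reference antagonist and vehicle were the controls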
Target sequence (P16066 whole entry, looked up): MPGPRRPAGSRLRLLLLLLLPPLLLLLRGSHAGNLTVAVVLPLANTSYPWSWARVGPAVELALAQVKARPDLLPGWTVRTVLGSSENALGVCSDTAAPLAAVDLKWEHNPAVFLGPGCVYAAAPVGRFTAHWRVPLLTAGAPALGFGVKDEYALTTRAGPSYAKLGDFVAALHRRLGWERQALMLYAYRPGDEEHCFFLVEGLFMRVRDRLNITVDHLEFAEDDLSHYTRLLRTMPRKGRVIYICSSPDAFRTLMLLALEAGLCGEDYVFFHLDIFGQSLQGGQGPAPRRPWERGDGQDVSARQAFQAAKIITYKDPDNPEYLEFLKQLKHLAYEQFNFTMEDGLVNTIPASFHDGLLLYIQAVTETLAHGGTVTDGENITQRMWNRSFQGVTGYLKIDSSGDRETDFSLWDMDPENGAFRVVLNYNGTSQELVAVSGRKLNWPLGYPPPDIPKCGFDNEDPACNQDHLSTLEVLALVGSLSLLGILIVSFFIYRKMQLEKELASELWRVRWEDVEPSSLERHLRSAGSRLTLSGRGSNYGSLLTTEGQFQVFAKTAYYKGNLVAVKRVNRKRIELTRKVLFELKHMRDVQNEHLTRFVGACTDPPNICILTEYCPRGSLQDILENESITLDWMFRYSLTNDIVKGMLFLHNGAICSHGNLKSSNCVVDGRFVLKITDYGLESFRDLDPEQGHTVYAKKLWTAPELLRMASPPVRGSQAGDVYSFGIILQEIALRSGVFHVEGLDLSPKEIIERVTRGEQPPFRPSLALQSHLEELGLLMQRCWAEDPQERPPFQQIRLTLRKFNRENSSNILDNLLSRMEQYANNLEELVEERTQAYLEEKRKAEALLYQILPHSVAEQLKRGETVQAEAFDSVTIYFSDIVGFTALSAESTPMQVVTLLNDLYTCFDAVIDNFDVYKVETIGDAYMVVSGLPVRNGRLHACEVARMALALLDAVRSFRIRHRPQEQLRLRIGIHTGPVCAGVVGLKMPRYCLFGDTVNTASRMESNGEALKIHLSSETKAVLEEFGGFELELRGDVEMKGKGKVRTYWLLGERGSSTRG
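HEK293 cells stably expressing human Npr1 and cGMP GloSensor pGS-40F, loaded 2 h with 2% GloSensor reagent, given compound 30 min at room temperature. Luminescence read before and 20 min after 0.1 nM hNppA.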
Starred values were filed as active, the others as inactive; ? = inconclusive; [ ] = remark or other dose. % is set by controls: 0 for no effect and ±100 for the full control effect; potency is the fitted concentration of half-maximal effect.

SMILES | hNpr1 antagonist
Cc1ncnc(N2CCC(Oc3ccc4ccccc4c3)(C(=O)O)CC2)c1C | 7%
CC(=O)Nc1ccc(NC(=O)c2cccc(CN3CCCC(C#N)C3)c2)cc1 (stereo not drawn) | -14%
N#Cc1ccc(CNC(=O)[C@@H]2Cc3nc[nH]c3CN2Cc2ccc(C(F)(F)F)cc2)cc1 | 1%
O=C1CC(c2ccccc2)N(C(=O)C2CC2)CCCN(C(=O)NCc2ccccc2)CCN1 (stereo not drawn) | 1%
O=C1CC(c2ccccc2)N(C(=O)CNC(=O)C2CC2)CCCCCCN1 (stereo not drawn) | 3%
COCC(=O)N1C[C@@H]2C(=O)N(CCc3ccccc3)C(=O)[C@@H]2C1 | -14%
Cc1nc(N2CC[C@@H](NC(=O)c3cnccn3)[C@H](O)C2)c2ccsc2n1 | ?
CC(=O)Nc1ccc(S(=O)(=O)N[C@H]2CO[C@H]3[C@@H]2OC[C@@H]3n2nnnc2-c2ccc3c(c2)OCO3)cc1 | 4%
CCn1cc(CN2CC[C@@H]3CN(S(C)(=O)=O)[C@@H]3C2)c(C)n1 | 9%
O=C(c1cc(F)ccc1Cl)N1CCC2(CC1)CC(O)CCO2 (stereo not drawn) | 3%

By substructure, the compounds so far with sulfur
SMILES | hNpr1 antagonist
Cc1nc(N2CC[C@@H](NC(=O)c3cnccn3)[C@H](O)C2)c2ccsc2n1 | ?
CC(=O)Nc1ccc(S(=O)(=O)N[C@H]2CO[C@H]3[C@@H]2OC[C@@H]3n2nnnc2-c2ccc3c(c2)OCO3)cc1 | 4%
CCn1cc(CN2CC[C@@H]3CN(S(C)(=O)=O)[C@@H]3C2)c(C)n1 | 9%

New compounds follow:
SMILES | hNpr1 antagonist
COc1ccc(C2(C(=O)N3CCC(C(=O)N4CCCCCCNC(=O)CC4)CC3)CC2)cc1 | 0%
COc1ccc2[nH]c3c(c2c1)CCN(C)C31CCN(C(=O)c2ccccn2)CC1 | -1%
CCC(CC)C(=O)NC1CCN(c2cnn(CC)c(=O)c2)CC1 | 14%
CN1CCC(NC[C@H]2COCc3nc4cc(C(F)(F)F)ccc4n32)CC1 | 2%[70.6 µM]
COc1cc(OC)cc(C(=O)Nc2ccc3c(c2)CN(Cc2ccc4c(c2)OCO4)C(=O)C(C)O3)c1 (stereo not drawn) | -12%
O=C(Nc1ccccn1)C1CC(=O)N(c2n[nH]c3ccccc23)C1 (stereo not drawn) | 3%
O=C(COc1ccccc1)N1CCC2(CC1)CN(Cc1ccccc1)CC2CO (stereo not drawn) | -24%
CCn1ncc(N2CCC(NC(=O)c3ccc4c(c3)OCO4)CC2)cc1=O | -1%
C=CCOc1cccc(C(=O)N2C[C@H](N)C[C@H]2C(=O)NC(C)C)c1 | -2%
Cc1cc(-c2cc3c(cn2)CN(Cc2ccc4[nH]ccc4c2)CCN3)ccn1 | ?
COc1ccccc1C(=O)N1CCCn2nc(C)c(-c3cccnc3N3CCOCC3)c21 | 5%[70.6 µM]
CN(CC1CCOCC1)C(=O)Cc1ccccc1Cl | -11%
COC1CCN(C(=O)c2coc(COc3ccc(F)cc3Cl)n2)CC1 | 4%
CC(=O)N1CCC(C2CCN(C(=O)C3CC=CCC3)C2)CC1 (stereo not drawn) | 2%
O=C(CCc1nc2ccccc2[nH]1)N1CCC(c2noc(-c3ccncc3)n2)C1 (stereo not drawn) | -8%
CCOc1cccc(-c2nc(C(=O)Nc3ccc(OC)cc3)cs2)c1 | 2%
OCc1cc(CC2(NCc3ccccc3)COC2)no1 | 0%[70.6 µM]
O=C(Nc1cccc(C(F)(F)F)c1)c1nc2c(o1)CCN(Cc1nccs1)CC2 | 35µM*
COCc1nc(C2CCCN(C(=O)NC3CCCC3)C2)no1 (stereo not drawn) | 0%
COc1ccc(OC)c(NC(=O)c2cc(-c3ccc[nH]3)n[nH]2)c1 | -8%
COc1ccc(-c2nnc3n2CCN(C(=O)c2ccccc2C)C3)cc1 | -11%
CN(Cc1ccccc1)Cc1cn([C@H]2CO[C@H]3[C@@H]2OC[C@@H]3NS(=O)(=O)c2cccc3cccnc23)nn1 | -1%
Cc1ccccc1OC1(C(=O)O)CCN(Cc2ccc(CO)o2)CC1 | -8%
Cn1cnc(S(=O)(=O)N2CCCC(c3nnnn3-c3ccccc3)C2)c1 (stereo not drawn) | 2%
CCn1nccc1C(=O)N1CC(Oc2ccc(-c3nc(C)no3)cc2)C1 | ?
COC(=O)c1cc2n(n1)CCN(C(=O)c1cccc3c1OCC3)C2 | 0%
COc1ccc(C(=O)N2CCc3ccc(C(=O)O)cc32)cc1 | -6%
O=C(Nc1ccccc1)C1CC(c2ccccc2)CN(C(=O)NCc2ccccc2)C1 (stereo not drawn) | -12%
COCCN1CCC(N2CCN(C(=O)c3ccc(F)cc3)CC2)C1=O (stereo not drawn) | -10%
O=C(NCc1n[nH]c2c1CCC2)c1coc(COc2cccc(F)c2F)n1 | -3%

A different layout for part of the listing above:
Compound	hNpr1 antagonist
CN(Cc1ccccc1)Cc1cn([C@H]2CO[C@H]3[C@@H]2OC[C@@H]3NS(=O)(=O)c2cccc3cccnc23)nn1	-1%
Cc1ccccc1OC1(C(=O)O)CCN(Cc2ccc(CO)o2)CC1	-8%
Cn1cnc(S(=O)(=O)N2CCCC(c3nnnn3-c3ccccc3)C2)c1 (stereo not drawn)	2%
CCn1nccc1C(=O)N1CC(Oc2ccc(-c3nc(C)no3)cc2)C1	?

Other results follow.
SMILES | hNpr1 antagonist
C[C@]1(CO)C2CC[C@H]3OC(=O)C[C@H]3[C@]2(C)CC[C@H]1OC(=O)Nc1ccccc1 (stereo partly drawn) | -6%[70.6 µM]
CNC(=O)[C@@H]1CN(C(=O)c2ccc(OC)cc2C)C[C@H]1CO | 6%
COc1ccc(CN2CC[C@@H]3[C@H]2C(=O)NC[C@H](CCC(=O)NCc2ccc(F)cc2)N3C)cc1 | 1%
Cc1ccsc1C(=O)N1CCC2(CC1)CC(N(Cc1ccccc1)C1CC1)CCO2 (stereo not drawn) | -26%
CCCn1cc2c3c(cccc31)CN(C(=O)c1cccc(F)c1)CC2 | -7%
O=C(c1nnc(COc2ccc3c(c2)OCO3)n1Cc1ccccc1)N1CCC[C@@H]1c1ccc(Br)cc1 | -30%
COc1ccc(CN2Cc3cc(NC(=O)Cc4cccs4)ccc3OC(C)C2=O)cc1 (stereo not drawn) | -28%
COc1ccc(CCNC(=O)c2c(C)noc2-c2ccc(OC(F)(F)F)cc2)cc1 | -2%
COCCCN1CC2(CCN(S(=O)(=O)c3cc(C)cc(C)c3)CC2)CC1=O | -2%
CC1=NS(=O)(=O)N(Cc2cccc(Cl)c2)C=C1C(=O)O | -16%
COc1cc(NC(=O)N2C[C@@H](F)C[C@H]2C(=O)N2CCCCC2)cc(OC)c1 | 2%
CCc1ccc(S(=O)(=O)N2CCC3(CC2)C(=O)N(CC)c2ccccc23)cc1 | 5%
Cc1cc(C)n(CCC(=O)NCCc2noc(-c3ccncc3)n2)n1 | -4%
O=C(C1CCC1)N1CCC(Oc2ccccc2)C1 (stereo not drawn) | 2%
Oc1cccc(Nc2cnc3ccc(-c4ccc(F)cc4)nn23)c1 | -18%[70.6 µM]
O=C(c1ccccc1Br)N1CCCN(C(=O)C2CC2)c2ccccc21 | -8%
CCCn1c(C)cnc1CC1CCN(C(=O)CC2CCCC2)C1 (stereo not drawn) | 6%
COc1ccc(-c2nc(C)nc3c2CCN([S+](=O)([O-])c2cccc(OC)c2)CC3)cc1 | -5%
Cc1noc(C)c1[S+](=O)([O-])NC1CCN(c2nc3ncccc3o2)CC1 | 5%
CC(=O)Nc1ccc(NC(=O)Cn2c(C)cc3nc4n(c(=O)c32)CCCC4)cc1 | -10%
O=[S+]1([O-])NCC2(CCN(CC3CCCCC3)C2)Nc2ccccc21 (stereo not drawn) | -9%
N#Cc1cccc(C(=O)N2CCCCCCNC(=O)[C@@H]3CCC[C@@H]32)c1 | 2%
O=C(c1ccn[nH]1)N1CCCC(Cn2c(C3CC3)nc3cccnc32)C1 (stereo not drawn) | -3%
Cc1cc(C(=O)N2C[C@@H](COc3ccccc3)[C@H](C(N)=O)C2)ccn1 | -2%
COc1ccc(NC(=O)Cn2cccc2-c2nc(-c3ccccc3)no2)c(OC)c1 | -15%
CCOCc1nc(C2CCCN(C(=O)Cc3ccc(C)cc3)C2)no1 (stereo not drawn) | -7%
Cc1cnc(CCNC(=O)c2cccc(C#N)c2)n1C1CC1 | 1%
COc1ccc2[nH]c(C[C@@H]3C[C@@H](C(C)C)[C@H](CNC(=O)c4cccnc4)C=C3C)nc2n1 | -23%[70.6 µM]
O=C(C1CCCCC1)N1CCN(C2CCN(Cc3cccnc3)C2=O)CC1 (stereo not drawn) | -10%
CC(C)c1ccc(C(=O)N2CCCC[C@H](N(C)C)C2)c(=O)n1C | 7%
CCOc1ccc(C(=O)N2CCC3(CC2)N=C(c2ccc(Cl)cc2)NO3)cc1 | 8.9µM*
COc1cc(-c2onc(C)c2C(=O)NCCCOC(C)C)cc(OC)c1OC | 5%
CC(C)(C)CCN1CCCC(COc2ccccc2C(=O)N2CCCC2)C1 (stereo not drawn) | 4%
O=C(CCc1cc2n(n1)CCCNC2)NCc1csc2c1CCCC2 | 0%
CC(=O)N1CCN(C(=O)CCC2CCN(c3cc(NC4CC4)ncn3)CC2)CC1 | ?
CC1CCN(C(=O)C2(CCO)CC23CCOCC3)CC1 (stereo not drawn) | -1%
CN(Cc1ccccc1)C(=O)CN1CC2CC(C1)[C@H]1CCCC(=O)N1C2 (stereo partly drawn) | -2%
O=C(CCC1CCCC1)N1CCC(Cc2nc(C3CCOCC3)no2)CC1 | 10µM*
COc1cccc(-c2cc(-c3cn[nH]c3)c3cncn3c2)c1 | -21%[70.6 µM]
COc1ccc(C(=O)N[C@@H]2CN(Cc3cccc(OC)c3)CCC[C@H]2O)cc1 | -2%[70.6 µM]
O=C(NCCN1CCCC1)C1CCN(C(=O)N2CC3CC(C2)[C@H]2CCCC(=O)N2C3)CC1 (stereo partly drawn) | 7%
O=C1c2c(-c3nc(-c4ccsc4)no3)nnn2CCN1Cc1ccc(Cl)cc1 | -3%
CCc1nn(-c2ccc(OC)cc2)c(Oc2ccccc2F)c1CCC(=O)NC(C)C | 2%
CC(C)CCN1CCc2c(sc3ncnc(N4CCN(C)CC4)c23)C1 | 0%
O=C(c1cccnc1)N1CCCC2(C1)C(=NC1CCCCC1)NC(=O)N2c1cccnc1 (stereo not drawn) | 0%
COc1ccc(-c2ccnc(N[C@H]3CO[C@H]4[C@@H]3OC[C@@H]4NS(=O)(=O)c3ccc(C)cc3)n2)cc1 | -12%
Cc1ccc(OCc2nc(C3CN(C(=O)Cc4ccsc4)C3)no2)cc1 | -18%
CN(CC1CCOC1)C(=O)Nc1cc(F)cc(F)c1 (stereo not drawn) | 9%
CCCc1cc(-c2nc3c([nH]2)CC(c2ccccc2OC)CNC3=O)on1 (stereo not drawn) | -2%
O=C(Nc1nn(-c2cccc(F)c2)c2cccc(N3CCOCC3)c12)C1CCC1 | ?

(cont.)
SMILES | hNpr1 antagonist
Cc1oc(-c2cc(F)ccc2F)nc1CN1CCN(c2ccccc2)CC1C (stereo not drawn) | -3%
CCN1c2cc(C(=O)N3CCN(c4ccccn4)CC3)ccc2C(=O)N2CCCCC21 (stereo not drawn) | 0%
CCN(CC)C1CCOC2(CCN(C(=O)Cc3c(C)noc3C)CC2)C1 (stereo not drawn) | 19%
O=C(O)C1CN(CC2CC2)CCN(C(=O)c2cc(=O)[nH]o2)C1 (stereo not drawn) | -7%
O=C1NC(C(=O)NC2CCN(Cc3ccccc3)CC2)Cn2cccc21 (stereo not drawn) | -2%
COc1ccc(Cn2c(C3CCN(C(=O)c4ccc(C#N)cc4)CC3)n[nH]c2=O)cc1 | -2%
O=C(NCc1ccccc1)c1cc2n(n1)CC(c1ccc(Cl)cc1)OC2 (stereo not drawn) | ?
CCN(CC)c1cc(CCC(=O)N2CCC(C)CC2)ccn1 | 2%
COc1ccc(NC(=O)[C@@H]2C[C@H](c3ccc(F)cc3)N(Cc3csc(C)n3)C2)cc1 | -3%[70.6 µM]
COc1ccc(-c2ccc3ncn(Cc4ccccc4)c(=O)c3n2)cc1OC | 1%[70.6 µM]
COc1cc2c(cc1OC)C(C[C@H]1CN(C(=O)Cc3ccccc3)CC[C@H]1CC(=O)O)=NCC2 | -3%
COCCN1C(=O)CC[C@]2(C(=O)N3CCCCCC3)CCCC[C@@H]12 | 1%
COc1ccc(C[C@H](NC(=O)[C@@H]2C[C@H](NC(=O)CC(C)(C)C)CN2C(=O)CC(C)(C)C)C(N)=O)cc1 | 4%
COc1ccc(S(=O)(=O)N2CCC(C3CCN(C(C)=O)CC3)C2)cc1 (stereo not drawn) | -1%
COCCn1ccc2c(C3=CCOCC3)nc(-c3cccc(O)c3)cc21 | -3%[70.6 µM]
c1ccc2c(c1)CC(N1CCC(CN(Cc3ccc4nonc4c3)CC3CCCO3)CC1)C2 (stereo not drawn) | 5%
O=C1N(CC2CC2)CCCC12CCN(S(=O)(=O)N1CCOCC1)C2 (stereo not drawn) | 27%

Ordered by SMILES length (largest number first): part of the list above.
SMILES | hNpr1 antagonist
COc1ccc(C[C@H](NC(=O)[C@@H]2C[C@H](NC(=O)CC(C)(C)C)CN2C(=O)CC(C)(C)C)C(N)=O)cc1 | 4%
COc1cc2c(cc1OC)C(C[C@H]1CN(C(=O)Cc3ccccc3)CC[C@H]1CC(=O)O)=NCC2 | -3%
COCCN1C(=O)CC[C@]2(C(=O)N3CCCCCC3)CCCC[C@@H]12 | 1%
COc1ccc(-c2ccc3ncn(Cc4ccccc4)c(=O)c3n2)cc1OC | 1%[70.6 µM]
COCCn1ccc2c(C3=CCOCC3)nc(-c3cccc(O)c3)cc21 | -3%[70.6 µM]

A portion of the library; count on the stated rates, not on these rows.
